HCMV UL50-53 inh = cytomegalovirus nuclear egress complex inhibition. HTRF UL50-UL53 interaction, normalized percent inhibition. inhibition, % (concentration not given with the values). 190,000 compounds, 0.15% hits. AID 1918969;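 active = both replicates at 50% or more, plus weaker picks with an unusually low signal ratio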;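 note: stock transfer was 100 nL into about 20 µL; 0% = negative control wells and 100% = wells with untagged competitor protein; inactives centre near -12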
Sa growth inh = inhibitors of Staphylococcus aureus growth at 42 °C; relative growth, % (test concentration not listed); S. aureus RN4220 growth, OD600, 20 h; hits give low values; 170,000 compounds, 0.53% hits;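 active = growth at 42 °C up to 50% and 20 or more points under that at 30 °C, or under 10% at both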;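 note: 300 nL library stock went into each well; scaled to the means of positive and negative controls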
GIV Gai3 FP = blocks GIV peptide binding to rat Galpha-i3; Galpha-i3/FITC-GIV peptide fluorescence polarization, 90 min; hits give low values; scaled: aluminum fluoride 0%, vehicle 100%; percent of control (FP), % (test concentration not listed); 210,000 compounds, 0.42% hits;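 active = replicate mean at 85% of control or lower, very high polarization wells dropped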;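 note: wells of about 15 µL received 100 nL stock; the first replicate is given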
Target sequence (P08753 whole entry, looked up): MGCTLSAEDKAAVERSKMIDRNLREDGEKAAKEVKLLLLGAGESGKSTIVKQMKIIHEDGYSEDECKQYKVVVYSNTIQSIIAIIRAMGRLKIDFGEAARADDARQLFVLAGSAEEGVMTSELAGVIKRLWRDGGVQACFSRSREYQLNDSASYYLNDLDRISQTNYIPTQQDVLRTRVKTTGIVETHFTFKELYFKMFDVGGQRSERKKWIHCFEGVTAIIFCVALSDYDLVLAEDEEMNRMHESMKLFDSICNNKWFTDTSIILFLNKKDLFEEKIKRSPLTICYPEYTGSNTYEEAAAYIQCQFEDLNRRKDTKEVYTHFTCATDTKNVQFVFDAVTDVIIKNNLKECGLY
Sa growth inh second temp = further read-out of Sa growth inh, marked with its call; relative growth, %; measured here: growth at 30 °C;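 optical density after 20 h as mean of two plates; 100% = untreated growth and lower means inhibition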
An asterisk follows results filed as active; · = no result given; & = joins results of further samples.

Sample of the layout, 19 compounds:
SMILES	HCMV UL50-53 inh	Sa growth inh	Sa growth inh second temp	GIV Gai3 FP
CC1(C)CC(=O)C2=C(C1)OC(c1ccc(I)o1)C(C#N)=C2N (stereo not given)	-4	100	103	100
CC1CCCN(S(=O)(=O)c2ccc(-c3nc(C#N)c(NC4CCCCC4)o3)cc2)C1 (stereo not given)	-9	·	·	100
c1ccc(-c2nc3cc(NCc4cccnc4)ccc3o2)cc1	-14	99	49	·
CC(C)C1O/C(=N\C(=O)Nc2ccc(Cl)c(Cl)c2)NC1=O (stereo not given)	-15	0.5*	-0.1*	·
CC(C)C(=O)Nc1ccc(S(=O)(=O)Nc2ccc3c(c2)C(=O)N(C)c2ccccc2O3)cc1	-20	·	·	104
COCC(C)n1c(COc2ccccc2F)nnc1SCc1nc2ccccc2s1 (stereo not given)	-8	108	93	·
N#CCn1c(=O)n(C2CCCCC2)c(=O)c2cccnc21	·	82	77	101
CCNC(=O)N1CCN(C(=O)NCC)CC1	-17	114	93	103
COc1ccccc1C(=O)Nc1ccc2nc(SCCOc3ccccc3C)sc2c1	8	97	89	102
COc1ccccc1NC(=O)CSc1nnc(-c2cccc(Cl)c2)o1	-9	99	77	97
NNS(=O)(=O)c1ccc(OC(F)(F)F)cc1	7	82	70	100
COc1ccccc1OCCSc1nnnn1C1CCCCC1	·	79	73	98
COc1ccc(-c2nc3ccccc3s2)cc1NC(=O)c1ccccc1Cl	-21	·	·	95
Cc1ccccc1NC(=O)Nc1ccc2nc(N3CCN(C)CC3)cc(C)c2c1	·	88	94	104
CCN(CC)C(=O)c1cc(-c2cccs2)nc2c1c(C)nn2-c1ccccc1C	-13	133	94	·
CC(C)CN(C(=O)CSC1=Nc2ccccc2C2CC=NN12)C1CCS(=O)(=O)C1 (stereo not given)	-24	76	84	·
CC1Cc2ccccc2N1C(=O)C1CCCN1S(=O)(=O)c1ccc(Cl)cc1 (stereo not given)	-1	106	101	108
O=C(Nc1ccc(N2CCOCC2)cc1)c1nc2ccccc2s1	-5	100	85	·
CCN1C(=O)/C(=C/C=C2/CCCN2C)N(c2ccccc2)C1=S	·	77	95	350

The whole of this part, previewed entries included:
SMILES	HCMV UL50-53 inh	Sa growth inh	Sa growth inh second temp	GIV Gai3 FP
CC1(C)CC(=O)C2=C(C1)OC(c1ccc(I)o1)C(C#N)=C2N (stereo not given)	-4	100	103	100
CC1CCCN(S(=O)(=O)c2ccc(-c3nc(C#N)c(NC4CCCCC4)o3)cc2)C1 (stereo not given)	-9	·	·	100
c1ccc(-c2nc3cc(NCc4cccnc4)ccc3o2)cc1	-14	99	49	·
CC(C)C1O/C(=N\C(=O)Nc2ccc(Cl)c(Cl)c2)NC1=O (stereo not given)	-15	0.5*	-0.1*	·
CC(C)C(=O)Nc1ccc(S(=O)(=O)Nc2ccc3c(c2)C(=O)N(C)c2ccccc2O3)cc1	-20	·	·	104
COCC(C)n1c(COc2ccccc2F)nnc1SCc1nc2ccccc2s1 (stereo not given)	-8	108	93	·
N#CCn1c(=O)n(C2CCCCC2)c(=O)c2cccnc21	·	82	77	101
CCNC(=O)N1CCN(C(=O)NCC)CC1	-17	114	93	103
COc1ccccc1C(=O)Nc1ccc2nc(SCCOc3ccccc3C)sc2c1	8	97	89	102
COc1ccccc1NC(=O)CSc1nnc(-c2cccc(Cl)c2)o1	-9	99	77	97
NNS(=O)(=O)c1ccc(OC(F)(F)F)cc1	7	82	70	100
COc1ccccc1OCCSc1nnnn1C1CCCCC1	·	79	73	98
COc1ccc(-c2nc3ccccc3s2)cc1NC(=O)c1ccccc1Cl	-21	·	·	95
Cc1ccccc1NC(=O)Nc1ccc2nc(N3CCN(C)CC3)cc(C)c2c1	·	88	94	104
CCN(CC)C(=O)c1cc(-c2cccs2)nc2c1c(C)nn2-c1ccccc1C	-13	133	94	·
CC(C)CN(C(=O)CSC1=Nc2ccccc2C2CC=NN12)C1CCS(=O)(=O)C1 (stereo not given)	-24	76	84	·
CC1Cc2ccccc2N1C(=O)C1CCCN1S(=O)(=O)c1ccc(Cl)cc1 (stereo not given)	-1	106	101	108
O=C(Nc1ccc(N2CCOCC2)cc1)c1nc2ccccc2s1	-5	100	85	·
CCN1C(=O)/C(=C/C=C2/CCCN2C)N(c2ccccc2)C1=S	·	77	95	350
Cc1ccc(NC(=O)c2oc3ccccc3c2NC(=O)Cc2cccs2)cc1	-10	118	72	104
COc1ccccc1NC(=O)COc1ncnc2ccccc12	-15	79	86	·
COc1ccccc1-c1cc2nc(C)c(CCC(=O)NC3CCCCC3)c(C)n2n1	-9	100	89	99
CCOC(=O)/C(C#N)=C/Nc1ccccc1	-4	94	88	110
CC(Sc1nc2ccccc2o1)C(N)=O (stereo not given)	-31	75	93	·
Cc1ccc(C)c(N2CCN(S(=O)(=O)c3ccc4c(c3)C(C)(C)C(=O)N4C)CC2)c1	1	·	·	97

(more compounds)
SMILES	HCMV UL50-53 inh	Sa growth inh	Sa growth inh second temp	GIV Gai3 FP
CCCCn1nnnc1COC(=O)c1ccccc1SCc1c(C)noc1C	-3	91	90	·
COCCNc1nnc(SCC(=O)c2ccc3c(c2)OCO3)s1	-37	101	90	·
COc1ccc(C2CC(=O)C3=C(C2)Nc2onc(C)c2C3c2ccc(Br)cc2)cc1OC (stereo not given)	-13	·	·	107
COCCCNC(=O)Cn1c(=O)n(-c2ccc(C)cc2)c(=O)c2c1c1cc(C)ccc1n2C	·	118	90	102
Cc1ccc(Cn2c(C3CC3)nc3ccc(N)cc3c2=O)cc1	-9	105	47	102
O=S(=O)(NC(c1ccccc1)c1nnc(-c2ccccc2)o1)c1ccc(F)cc1 (stereo not given)	-28	87	88	109
COc1ccc(OC)c(C2Nc3ccc4ncccc4c3C3=C2C(=O)CCC3)c1 (stereo not given)	-8	108	103	103
CCOCCn1ccc2c(OCC(=O)Nc3ccc(OC(F)(F)F)cc3)cccc2c1=O	·	122	85	96
Cc1ccc(S(=O)(=O)c2c[nH]c3ccccc3c2=O)cc1	-16	80	73	101
CCOc1ccc(S(=O)(=O)N(Cc2ccco2)Cc2ccccc2C#N)cc1	-23	106	91	·
Cc1cccc(CN2C(=O)c3ccccc3Sc3ccc(C(=O)NC(C)C)cc32)c1	·	102	88	104
CC1CN(c2ccnc3cc(Cl)ccc23)CC(C)O1 (stereo not given)	-3	100	94	·
O=C(c1cccs1)N1CCCN(Cc2cccc3ccccc23)CC1	·	120	97	99
Cc1ccc(NS(C)(=O)=O)cc1F	7	103	108	102
COC(=O)c1c(-c2cccs2)csc1NC(=O)c1ccc(Br)cc1	-23	102	76	97
COc1ccc(C2CC(=O)C3=C(C2)NC(C)=C(C(=O)OC2CCCC2)C3c2ccccc2OC)cc1OC (stereo not given)	-10	·	·	98
O=C(c1cnc2c(c1)c(-c1ccccc1)nn2CCO)c1ccccc1O	-50	106	90	·
Cc1oc(-n2cccc2)c(C#N)c1C(=O)NC1CCCCCC1	-8	96	96	·
CC(=O)Nc1ccc(NC(=O)COc2ccc(Cl)cc2Cl)cc1	-8	103	89	93
O=C(CCn1cnc2cc(S(=O)(=O)N3CCCC3)ccc21)N1CCc2ccccc2C1	-26	·	·	105
CCOC(=O)c1ccc(NC(=O)C2CC(=O)N(C)C(=Nc3ccc(C(=O)OC)cc3)S2)cc1 (stereo not given)	-6	·	·	110
CCc1ccc(CNC(=O)c2coc(=O)c3ccccc23)cc1	·	108	88	101
COC(=O)c1ccccc1S(=O)(=O)Nc1ccc2nc(C)sc2c1	-9	104	96	·
CS(=O)(=O)c1ccc(C(=O)Nc2cccc(Cl)c2)cc1	-2	102	71	97
COC(=O)c1c(N)n(-c2cc(Cl)cc(Cl)c2)c2nc3ccccc3nc12	-42	102	80	102

A few values from the results shown.
CC(=O)Nc1ccc(NC(=O)COc2ccc(Cl)cc2Cl)cc1 in GIV Gai3 FP reads 93
O=C(c1cccs1)N1CCCN(Cc2cccc3ccccc23)CC1 in GIV Gai3 FP reads 99

(list continues)
SMILES	HCMV UL50-53 inh	Sa growth inh	Sa growth inh second temp	GIV Gai3 FP
CCCNC(=O)c1c(C)c(C(=O)OCC)n(C)c1C	-8	104	91	99
O=C(CSc1nnc(CNC(=O)c2c(F)cccc2Cl)o1)Nc1cccc(F)c1	-6	106	83	101
COc1ccc(OC)c(Nc2nc(-c3ccc(C)cc3)nc3ccccc23)c1	·	108	98	100
CC(C)C1=NNC(=O)C1(C)C	-24	98	85	102
O=C(c1ccco1)N(Cc1cccnc1)c1nc2ccc(F)cc2s1	·	77	78	107
CCCCc1c(O)nc2sc3ccccc3n2c1=O	2	119	96	98
CC(=O)C1=C(C)Nc2ncnn2C1c1ccccn1 (stereo not given)	-16	·	·	97
O=C(CSc1nnc2scc(-c3ccccc3)n12)Nc1ccc(Cl)cc1	-36	104	75	99
COC(=O)c1c(NC(=O)c2nc(SCc3ccc(C)cc3)ncc2Cl)sc2c1CCCC2	-4	97	90	99
CCOC(=O)c1nc(NCCc2c[nH]c3ccc(OC)cc23)c2c(C)noc2n1	-7	·	·	101
CCn1c(C)[n+](CC)c2ccc(Cl)cc21	7	77	92	·
COc1ccc(OCC(=O)OCCN2C(=O)c3ccccc3C2=O)cc1	-4	99	101	108
CCCOc1ccccc1C(=O)Nc1ccc2c(c1)NC(=O)CO2	14	·	·	104
CCSc1nnc(-c2cccc(S(=O)(=O)N(C)C)c2)n1-c1ccc(F)cc1	7	81	89	·
CSc1nnc2c(n1)OC(c1ccccn1)Nc1ccccc1-2 (stereo not given)	-5	·	·	112
Cc1cc2cc(OCc3ccccc3)ccc2n1C	7	103	98	105
O=C(NCCc1ccccc1)C1COc2ccccc2O1 (stereo not given)	-19	·	·	107
COc1cc(NC(=O)Cc2noc3ccccc23)cc(OC)c1OC	-2	116	91	96
Cc1cc(C(=O)CSc2nnc(Cc3ccccc3)o2)c(C)n1CC1CCCO1 (stereo not given)	-36	109	94	·
Cc1cc(N2C(=O)CCC2=O)no1	-10	101	89	·
C[C@](N)(Cc1ccc(O)c(O)c1)C(=O)O	-32&-25&-10&-4&-24	94&91	78&90	97&96
COCC(=O)OCn1nnc2ccccc2c1=O	·	87	76	100
COc1cc(OC)cc(C(=O)NCC(c2ccc(N(C)C)cc2)N(C)C)c1 (stereo not given)	-16	·	·	101
O=C(NCc1ccc2c(c1)OCO2)c1c(-c2ccccc2)nnc2ccccc12	-42	·	·	105
COc1ccc(O)c(C(=O)c2cnc3onc(-c4ccc(Cl)cc4)c3c2)c1	11	104	100	·

Next part:
SMILES	HCMV UL50-53 inh	Sa growth inh	Sa growth inh second temp	GIV Gai3 FP
O=C(Nc1ccc(-c2nc3ccccc3s2)cc1)c1ccc(S(=O)(=O)N2CCCc3ccccc32)cc1	-12	·	·	94
CCN(CC)S(=O)(=O)N1CCC(C(=O)NCc2ccco2)CC1	6	96	80	104
CCN(CC)S(=O)(=O)c1ccc(NC2c3ccccc3C(=O)N2c2ccccn2)cc1 (stereo not given)	-1	96	94	109
COc1cc2nn3c(C)cc(=O)[nH]c3c2cc1OC	3	106	94	109
Cn1ccc2c(OCC(=O)NCc3ccccc3Cl)cccc2c1=O	·	116	83	96
CCN(CC)C(=O)COc1cc(C)ccc1C(C)C	-9	102	93	97
CCc1ccc(CNC(=O)c2ccc(CS(=O)(=O)Cc3ccccc3C)o2)cc1	·	91	85	101
COCC(O)CSc1nc(C)cc(C)n1 (stereo not given)	-2	127	116	96
Cc1ccc(C)c(NC(=O)Nc2ccc(Nc3cc(N(C)C)nc(C)n3)cc2)c1	-23	·	·	102
Cc1cccc(CSc2ncc(Cl)c(C(=O)Nc3sc4c(c3C#N)CCCC4)n2)c1	11	98	96	104
COc1cc(OC)c([C@H]2N(c3ccc(Cl)cc3)C(=O)[C@@H]3CCCN32)cc1OC	-52	·	·	105
CCOCCOC(=O)C1=C(C)NC2=C(C(=O)CC(c3ccc(Cl)cc3)C2)C1c1cc(Br)c(O)c(OC)c1 (stereo not given)	4	·	·	104

2 successive compounds from above:
SMILES	HCMV UL50-53 inh	Sa growth inh	Sa growth inh second temp	GIV Gai3 FP
CC1(C)CC(=O)C2=C(C1)OC(c1ccc(I)o1)C(C#N)=C2N (stereo not given)	-4	100	103	100
CC1CCCN(S(=O)(=O)c2ccc(-c3nc(C#N)c(NC4CCCCC4)o3)cc2)C1 (stereo not given)	-9	·	·	100

Screening data deposited in PubChem BioAssay by ICCB-Longwood Screening Facility, Harvard Medical School.
